# 2A StopGo – lowers the luciferase signal of an FMDV 2A StopGo reporter; human cells with a luciferase reporter of 2A StopGo recoding; control for the full effect not named in the record; Potency, µM (top dose mostly 57.9 µM), for inactives: at the highest dose signal change, negative = less light; 410,000 compounds, 1.2% hits; AID 1159524; active = well fitted falling curve with a large enough effect; inconclusive = small, poorly fitted or top-dose-only effect; inactive = no such curve, though single readings can be large or run the other way; tested in HEK293T cells; note: % is set by controls: 0 for no effect and ±100 for the full control effect; nearly all actives have a fitted effect of over 45% in size; luciferase light after 4 h
# SARS PLpro yeast – inhibitors of SARS-CoV papain-like protease in yeast | S. cerevisiae expressing SARS-CoV PLpro, growth rescue; control for the full effect not named in the record | Potency, µM (doses to about 32.9 µM), without a hit: top-dose activity, positive = growth rescue | 330,000 compounds, 0.19% hits | AID 485353; active means well fitted rising curve with a large enough effect; inconclusive means small, poorly fitted or top-dose-only effect; inactive means no such curve, though single readings can be large or run the other way; note: 0% is about no effect; nearly all actives have a fitted effect of over 55% in size; growth read by luminescence after 48 h
# RE007 growth inh – less growth of the S. pombe RE007 Vpr strain | S. pombe RE007 Vpr strain, BacTiter-Glo ATP luminescence, 24 h; control for the full effect not named in the record | 360,000 compounds, 0.21% hits | Potency, µM (series often up to 92.2 µM), inactives show top-dose activity change, negative = less growth; active = well fitted falling curve with a large enough effect; inconclusive = small, poorly fitted or top-dose-only effect; inactive = no such curve, though single readings can be large or run the other way;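 note: % is set by controls: 0 for no effect and ±100 for the full control effect; nearly all actives have a fitted effect of over 50% in size; the assay follows cell death caused by Vpr and the record does not say whether a fall means rescue or toxicity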
#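 Fission yeast RE007 carrying one integrated HIV-1 vpr copy, seeded at OD 0.01 in PMG+AL medium with 23 nL pinned compound. Grown 24 h at 30 degrees; viability read by BacTiter-Glo luminescence after 5 min.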
# * hit, by the source's call; ? = inconclusive; [ ] = another dose, or the depositor's remark. Potency is the fitted concentration of half-maximal effect. Not all compounds are listed. The share of hits here may be higher or lower than overall.
SMILES	2A StopGo	SARS PLpro yeast	RE007 growth inh
CNC(=O)c1ccc(NC(=O)c2cc(S(=O)(=O)N(C)C)ccc2N2CCCC2)cc1	-22%	0%	4%
CCOC(=O)N1CCN(S(=O)(=O)c2ccc3c(c2)C(C)C(=O)N3)CC1 (stereo not drawn)	-26%	-3%	12%
C[C@@H](CSc1ccc(Br)cc1)CN1CC[C@H](O)CCC1=O	1%	-7%	-4%
CC[C@@]1(C(=O)OC)N[C@H](CN(C)C(=O)c2ccc(C)cc2)[C@@H]2C(=O)N(Cc3ccccc3)C(=O)[C@@H]21	-1%	5%	25%
Cc1cc(NC(=O)CSc2ccc3nnc(CCNC(=O)c4ccccc4)n3n2)no1	-6%	7%	6%
COC(=O)CCSCC(=O)N1N=C(c2ccc(OC)cc2)CC1c1cccc(OC)c1OC (stereo not drawn)	-14%	3%	8%
N#Cc1ccc(S(=O)(=O)N2CCC(C(=O)N3CCN(Cc4ccc5c(c4)OCO5)CC3)CC2)cc1	?	-6%	-10%
CC1CCC(NC(=O)CN2C(=O)NC3(CCCCCC3)C2=O)CC1 (stereo not drawn)	-5%	-4%	-10%
CCC[C@@H]1CCCC/C=C\CCCC(=O)OCCN1C(=O)OC(C)(C)C	?	0%	-7%
COc1ccc(C(=O)NCc2ccc(C)cc2)cc1S(=O)(=O)N1CCCC1	29%	1%	-1%
Cc1cc(=O)[nH]c(SCC(=O)Nc2nc3ccccc3s2)n1	19%	1%	-19%
Cn1nc(C(=O)OCC(=O)Nc2ccccc2OC(F)F)c2ccccc2c1=O	-23%	1%	0%
Cc1ccc(CN(C)C(=O)CN2C(=O)NC3(CCCC3)C2=O)o1	-9%	1%	19%
COc1ccc(C2=NN(C(=O)CSC3=NN4CCCC(=O)N=C4S3)C(c3cccc(OC)c3OC)C2)cc1 (stereo not drawn)	-5%	0%	12%
C=CCC[C@@H](Cc1ccc(F)cc1)C(=O)OC[C@@H](Cc1c[nH]c2ccccc12)NC(=O)[C@H](CC=C)CC(=O)N[C@H](CO)Cc1ccccc1	-24%	2%	28%
C#CCOCCOCCOCCNc1nc(N2CCN(C(=O)[C@H](CCCN=C(N)N)n3cc(C(N)[C@@H](C)CC)nn3)CC2)nc(N2CCN(C(=O)[C@H](CO)n3cc([C@@H](N)C(C)C)nn3)CC2)n1 (stereo partly drawn)	-20%	1%	-25%
COc1ccc(CNC(=O)c2ccccc2SCC(=O)NCc2ccco2)cc1	-11%	5%	0%
COc1ccc(CC(=O)N[C@@H]2c3cc(OC)c(OC)cc3C[C@H]2OCc2ccccc2)cc1	0%	11%	-15%
CCCNC(=O)c1onc(CSc2ccc(F)cc2)c1C(=O)NC(C)C	-9%	1%	5%
COc1ccc(CCNC(=O)CSc2nc3[nH]ncc3c(=O)n2-c2ccc(Cl)cc2Cl)cc1OC	-12%	2%	4%
O=S(=O)(Nc1ccc2c(c1)OCO2)c1ccc(F)c(F)c1	12%	2%	3%
Cc1ccccc1OCC(=O)Nc1cccc(S(=O)(=O)NC2=NCCC2)c1	51%[activator]	4%	-5%
Cc1cc(C)cc(OCC(=O)NNC(=O)c2ccccn2)c1	-12%	-2%	?
C[C@@H]1COC(=O)[C@@H](Cc2ccc(F)cc2)CC/C=C\C[C@@H](CC(=O)NCCO)C(=O)N1	-8%	-4%	6%
O=C1c2cccnc2C(Nc2cccc(F)c2)N1Cc1ccco1 (stereo not drawn)	-11%	1%	18%
Nc1cc(C(=O)OCC(=O)NCCC2=CCCCC2)ccc1Cl	1%	-2%	1%
Cc1ccc(NC(=O)COC(=O)CN2C(=O)NC3(CCCC3)C2=O)cc1Cl	-4%	-6%	2%
CCC1CCC2(CC1)NC(=O)N(CC(=O)Nc1ccc(OC)c(Cl)c1)C2=O (stereo not drawn)	-16%	4%	-3%
COc1ccc(S(=O)(=O)N2CCc3ccccc32)cc1C(=O)Nc1ccc(NC(C)=O)cc1	25%	-1%	0%
CC(C)c1cccc(-c2ccc3c(c2)S(=O)(=O)c2cccc(C(=O)NCc4ccccc4Cl)c2C3=O)c1	-28%	-16%	17%

# The listing continues:
SMILES	2A StopGo	SARS PLpro yeast	RE007 growth inh
CC1CC(=NNC(=O)C2COc3ccccc3O2)CC(C)(C)C1 (stereo not drawn)	0%	-1%	-10%
O=C(CSc1n[nH]c(-c2cccs2)n1)N1CCCC1	25%	-1%	14%
COc1ccc([C@H]2CC(=O)C=C(c3ccc(OC(F)(F)F)cc3)C2)cc1	18%	5%	10%
Cc1ccc(C2CC(=O)Oc3cc(C)cc(C)c32)cc1 (stereo not drawn)	-11%	-2%	2%
O=C(COC(=O)c1ccc(S(=O)(=O)N2CCCC2)cc1)Nc1ccc(Cl)cc1	1%	0%	2%
CC(C)(C)NC(=O)C[C@H]1C[C@H](C(=O)N2CCCCC2)[C@@]2(CCc3ccccc3)c3[nH]c4ccc(Cl)cc4c3CCN2C1=O	-14%	7%	4%
O=C(O[C@@H]1[C@H](Cc2ccccc2)NS(=O)(=O)[C@H]2C[C@@H]3C=C[C@]12O3)c1ccccc1Br	-11%	3%	-23%
O=C(c1cccc(OCc2ccccc2)c1)N1CCOCC1	18%	1%	-6%
COc1cccc(CN2c3ccc(Br)cc3C(=O)CS2(=O)=O)c1	3%	-1%	5%
O=C(CNC(=O)c1cccc([N+](=O)[O-])c1)OCCCC(=O)c1ccc(F)cc1	-20%	-11%	-25%
CN(C)CCCNC(=O)CC1C[C@H](C(=O)N2CCOCC2)[C@@]2(CCC3CCCC3)c3[nH]c4ccccc4c3CCN2C1=O (stereo partly drawn)	10%	-5%	-3%
CCN1C(=O)[C@@H]2[C@@H](c3ccc(-c4ccccc4)cc3)N3CCC[C@@]3(C(=O)OC)[C@@H]2C1=O	-20%	4%	2%
CC(C)NC(=O)N(C)C[C@H]1Oc2ccc(NC(=O)CCN3CCOCC3)cc2C(=O)N([C@H](C)CO)C[C@@H]1C	-17%	2%	-3%
O=C(NC1CCCCCC1)C1CCN(S(=O)(=O)c2cnc[nH]2)CC1	-13%	3%	25%
C[C@H](CO)N1C[C@H](C)[C@@H](CN(C)S(=O)(=O)c2ccccc2)Oc2ccc(NC(=O)C3CCCCC3)cc2C1=O	-12%	3%	-1%
CCCNC(=O)N1[C@H]2CC[C@@H]1C(C(=O)OC)=C(c1c(C)noc1C)C2	-12%	-3%	-12%
CC(C)(C)NC(=O)C(c1ccc(-c2ccccc2)cc1)N(C[C@H]1CC[C@@H]([C@@H]2CC[C@H](CO)O2)O1)C(=O)c1ccccc1F (stereo partly drawn)	-24%	15%	0%
NC(=O)C1(N2CCCCC2)CCN(C(=S)NCCc2ccccc2)CC1	3%	-1%	-3%
Nc1c(Cl)cc(Cl)cc1C(=O)OCC(=O)N1CCOCC1	-4%	0%	20%
CC[C@]1(C(=O)OC)[C@H]2C(=O)N(Cc3ccccc3)C(=O)[C@H]2[C@H]2CN=C(SCC3CC3)N21	-12%	-2%	-15%
N#Cc1cccc(NS(=O)(=O)c2ccccc2Cl)c1	28%	-11%	-4%
CC(=O)c1c(C)[nH]c(C(=O)COC(=O)c2nccnc2N)c1C	10%	-4%	-5%
NCCCCCNC(=O)c1[nH]cnc1C(=O)N[C@@H](Cc1ccccc1)C(=O)OCc1ccccc1	-6%	4%	5%
Cc1cc(C)cc(NC(=O)CN2C(=O)C3CC=CCC3C2=O)c1 (stereo not drawn)	2%	2%	2%
CCOc1ccc([C@@H]2CC=C(C(=O)O)[C@H](c3cccc(Cl)c3)N2S(=O)(=O)c2ccc(C)cc2)cc1	0%	-2%	3%
Cc1ccc(S(=O)(=O)N2CCCCC2)cc1NC(=O)CNc1ccccc1N1CCCC1=O	-3%	-2%	-1%
CN(C)C(=O)CCc1ccc2c3c([nH]c2c1)[C@]1(CCc2ccccc2)[C@@H](C(=O)N2CCCCC2)C[C@H](CC(=O)NCc2cccc(C(F)(F)F)c2)C(=O)N1CC3	-2%	9%	-5%
Cc1noc(C)c1NC(=O)N(C)C[C@H]1Oc2c(NC(=O)Nc3ccc4c(c3)OCO4)cccc2C(=O)N([C@H](C)CO)C[C@@H]1C	9%	-2%	0%
C[C@H]1CN([C@@H](C)CO)C(=O)c2cc(NC(=O)Nc3cccc4ccccc34)ccc2O[C@@H]1CN(C)Cc1ccc(-c2ccccc2)cc1	-17%	1%	-2%
COc1ccc(S(=O)(=O)N2CCOCC2)cc1NC(=O)COC(=O)Cc1ccccc1	-12%	-2%	16%

# 7 entries already listed, ordered by number of heavy atoms, low to high.
SMILES	2A StopGo	SARS PLpro yeast	RE007 growth inh
Cc1ccc(C2CC(=O)Oc3cc(C)cc(C)c32)cc1 (stereo not drawn)	-11%	-2%	2%
Cc1cc(C)cc(NC(=O)CN2C(=O)C3CC=CCC3C2=O)c1 (stereo not drawn)	2%	2%	2%
O=C(NC1CCCCCC1)C1CCN(S(=O)(=O)c2cnc[nH]2)CC1	-13%	3%	25%
COc1ccc([C@H]2CC(=O)C=C(c3ccc(OC(F)(F)F)cc3)C2)cc1	18%	5%	10%
CCN1C(=O)[C@@H]2[C@@H](c3ccc(-c4ccccc4)cc3)N3CCC[C@@]3(C(=O)OC)[C@@H]2C1=O	-20%	4%	2%
NCCCCCNC(=O)c1[nH]cnc1C(=O)N[C@@H](Cc1ccccc1)C(=O)OCc1ccccc1	-6%	4%	5%
CC(C)(C)NC(=O)C(c1ccc(-c2ccccc2)cc1)N(C[C@H]1CC[C@@H]([C@@H]2CC[C@H](CO)O2)O1)C(=O)c1ccccc1F (stereo partly drawn)	-24%	15%	0%

# Going on with the list:
SMILES	2A StopGo	SARS PLpro yeast	RE007 growth inh
CCN1C(=O)[C@H]2[C@@H](c3ccc(-c4ccc(C(C)=O)cc4)c(OC)c3)N[C@@](Cc3ccccc3)(C(=O)OC)[C@H]2C1=O	10%	-6%	-17%
Cc1ccc(NC(=O)CN(C)C(=O)/C=C/c2ccc3c(c2)OCO3)cc1	-15%	3%	-10%
COc1cc(C)ccc1OCC(=O)Nc1nnc(C2CC2)s1	53%[activator]	-3%	2%
Cc1ccc(C)c(NC(=O)CN2C(=O)NC(C)(c3ccc4c(c3)OCCO4)C2=O)c1 (stereo not drawn)	-15%	-4%	4%
COc1ccc(C(=O)Nc2ccc(N3CCCCCC3)cc2)cc1S(=O)(=O)N1CCOCC1	-49%	-1%	4%
COc1ccc(CN([C@H](C)CO)S(=O)(=O)N(Cc2ccccc2)[C@H](CO)C(C)C)cc1	2%	-3%	-1%
COc1ccccc1-c1oc2ccccc2c1C#CC1(O)CCCCC1	-18%	1%	4%
Cc1ccc(-n2c(SCC(=O)NCC3CCCO3)nc3ccccc3c2=O)cc1 (stereo not drawn)	-8%	-1%	-2%
Cc1cc(Cl)ccc1OC(C)C(=O)OCC(=O)Nc1ccc2[nH]c(=O)[nH]c2c1 (stereo not drawn)	-8%	-5%	-5%

# Shown with each value named: 2 of the compounds above.
> Cc1ccc(C)c(NC(=O)CN2C(=O)NC(C)(c3ccc4c(c3)OCCO4)C2=O)c1 (stereo not drawn)
  2A StopGo: -15% | SARS PLpro yeast: -4% | RE007 growth inh: 4%
> COc1ccc(C(=O)Nc2ccc(N3CCCCCC3)cc2)cc1S(=O)(=O)N1CCOCC1
  2A StopGo: -49% | SARS PLpro yeast: -1% | RE007 growth inh: 4%

# As a working copy, some entries already given.
SMILES	2A StopGo	SARS PLpro yeast	RE007 growth inh
C[C@@H]1COC(=O)[C@@H](Cc2ccc(F)cc2)CC/C=C\C[C@@H](CC(=O)NCCO)C(=O)N1	-8%	-4%	6%
O=C1c2cccnc2C(Nc2cccc(F)c2)N1Cc1ccco1 (stereo not drawn)	-11%	1%	18%
Nc1cc(C(=O)OCC(=O)NCCC2=CCCCC2)ccc1Cl	1%	-2%	1%
Cc1ccc(NC(=O)COC(=O)CN2C(=O)NC3(CCCC3)C2=O)cc1Cl	-4%	-6%	2%

# Source: PubChem
